Source: PubChem
RN4220 kill – growth inhibition of S. aureus RN4220, primary screen, OD600. 16 h. inhibition, % (concentration not given with the values). 330,000 tested, 0.33% active;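 active = z-score of -3 or lower and OD600 up to 0.18 on both plates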;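 note: plate controls were untreated cells for no effect and reference antibiotic for full effect; stock transfer was 100 nL into about 80 µL; one replicate is shown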
Bead autofluor – compound fluorescence in toxin protease inhibitor counterscreen; compound autofluorescence counterscreen, microsphere flow cytometry; hits give high values; fluorescence intensity (concentration not given with the values); 360,000 tested, 3.1% active;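 active = at least 3 SD above the mean of all compounds, about 16000 in these data; inconclusive = too few beads counted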;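 note: 100 nL of 1 mM stock went into each well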
BJeLR viability – MLPCN primary cell-based screen for lethality selective to Ras in HRASV12 cells. BJeLR (HRASV12) viability, CellTiter-Glo ATP luminescence, 48 h; reference of the scale not given here. inhibition, % (no concentration beside the values). 300,000 tested, 0.17% active;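 active = replicate mean above 50%; inconclusive = above 50% but judged a plate artefact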;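 note: 50 nL library stock added to about 25 µL; numbers are from one replicate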
Mtb hypoxia rep – PubChem AID 1159583; M. tuberculosis hypoxia-regulated fluorescent reporter, fluorescence; fluorescence inhibition, % (concentration not given with the values); 300,000 tested, 0.1% active;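 active = 35 to 45% if threefold the growth effect, above 45% if 1.5-fold the growth effect; inactive = the rest, general growth blockers included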;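 note: wells of about 50 µL received 100 nL stock; 0% = vehicle wells and 100% = reference inhibitor wells; whole bacteria with a GFP reporter of the hypoxia response; strong numbers were not always called active; many hits fall short of the cut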
ugtP null kill – growth inhibition of ugtP-null S. aureus, primary screen, RN4220 ugtP deletion, OD600 | 16 h; some inactives read as strong as hits | growth inhibition, % (no concentration beside the values) | 330,000 tested, 0.54% active | AID 1259309, 2017;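 active = z-score under -3 and OD600 up to 0.15 on both plates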;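 note: plate controls were untreated wells for no effect and antibiotic for full effect; wells of about 80 µL received 100 nL stock; the first replicate is given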
PrP UTR inh – inhibition of PrP 5' UTR reporter expression; cell-based PrP 5' UTR mRNA reporter, plate reader; inhibition, % (concentration not given with the values); 340,000 tested, 0.35% active; AID 488862, 2010;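 active = every replicate at 50% or more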;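 note: 0 = median of the neutral control wells; tested in H4 reporter cells; numbers are from one replicate; inactives centre near -14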
Mtb hypoxia rep growth – recorded beside Mtb hypoxia rep, whose call it bears; growth inhibition, %; measured here: M. tuberculosis growth (absorbance);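 0% = vehicle and 100% = reference antibiotic; read after six days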
An asterisk follows results filed as active; ? = inconclusive; / = not tested or not shown.

SMILES	RN4220 kill	Bead autofluor	BJeLR viability	Mtb hypoxia rep	Mtb hypoxia rep growth	ugtP null kill	PrP UTR inh
O=C(NCc1ccco1)c1nnc(Cc2ccc(F)cc2)o1	4.5	6058	2	7	1	12	-18
c1ccc(C(c2ccccc2)N2CCN(Cc3nnnn3C3CCCC3)CC2)cc1	-1.9	2789	5	/	/	-5	-5
c1csc(-c2nn[nH]n2)c1	8.2	2351	7	4	1	7	4
COc1ccccc1NS(=O)(=O)c1cc(N)ccc1N1CCCC1	6.6	3089	/	11	3	-10	-5
CCc1cc2cc3c(cc2nc1SCC(=O)N1CCN(C(=O)c2ccco2)CC1)OCO3	2.4	3855	-16	/	/	-9	-1
CCN(C(=O)COC(=O)c1cccc(NS(=O)(=O)c2ccc(F)c(F)c2)c1)C1CCS(=O)(=O)C1 (stereo not given)	4.7	/	10	17	-4	10	/
O=C(COC(=O)c1cc([N+](=O)[O-])ccc1Cl)NC1CCCC1	0.8	3758	3	2	-2	0	-19
CN(CC(=O)Nc1ccc(Cl)c(Cl)c1)C(=O)CC1OC(=O)c2ccccc21 (stereo not given)	1.7	6114	17	-3	-2	6	-28
Cc1cccc(CCNC(=O)C2CCN(S(=O)(=O)c3cccc4cccnc34)CC2)c1	1.8	4711	1	11	-4	5	-6
CCc1nnc(NS(=O)(=O)c2ccc(N/C=C/C(=O)c3ccc(C)cc3)cc2)s1	/	7674	4	/	/	/	-18
COc1ccccc1CNC(=O)c1ccc2nc(N3CCOCC3)sc2c1	-0.4	5178	-5	5	16	6	-18
COCCCNC(=O)COc1ccc(S(=O)(=O)NCc2ccccc2)cc1Cl	2.3	2616	18	-1	0	5	-13
Cc1cc(C)c2nc(-c3ccccn3)cc(C(=O)NCCc3ccc(S(N)(=O)=O)cc3)c2c1	4.3	4915	10	1	-9	-12	-10
CCC(CC)NC(=O)COC(=O)c1ccc2c(c1)C(=O)N(Cc1ccco1)C2=O	1.7	2975	-10	6	-4	-1	-7
CCc1nc(SCC(=O)NCCc2ccc(OC)c(OC)c2)c2c(=O)n(C)c(=O)n(C)c2n1	16	4988	1	-5	12	4	1
CC(C)(C)[C@H]1C=C(C(=O)N2CCN(Cc3ccc4c(c3)OCO4)CC2)O[C@@H](OCCCCO)C1	/	4222	11	/	/	/	-15
OCCNc1nc2nonc2nc1NCCO	2.9	2294	-2	3	4	0	-11
Cc1ccc(C)c(-c2nnc(NC(=O)CCS(=O)(=O)c3ccc(F)cc3)o2)c1	0.8	?	-9	1	-1	5	-21
O=C(NNC(=O)c1ccc2nc[nH]c2c1)c1ccccc1	8.2	3513	/	-7	4	7	-23
CCN(CC(=O)Nc1ccc(NC(C)=O)cc1)CC(=O)Nc1ccccc1C(=O)c1ccccc1	0.1	3501	-2	-11	5	-6	-2
O=c1c2cc(-c3ccccc3)sc2nc2n1N=C(c1ccccc1)CS2	-0.5	3824	-3	6	-2	-21	-176
O=S(=O)(c1cccc2nonc12)N1CCCCCC1	9.8	4028	8	23	10	5	-5
C[C@H](/C=C/[C@@]1(O)[C@H](C)C[C@H](O)CC1(C)C)O[C@@H]1O[C@H](CO)[C@@H](O)[C@H](O)[C@H]1O	9.6	4263	12	/	/	-1	-17
O=C(O)C1C2C=CC(C2)C1C(=O)N1CCN(C/C=C/c2ccccc2)CC1 (stereo not given)	/	3990	12	/	/	/	-63
CCN(CC)S(=O)(=O)c1ccc(NN=C(C)c2ccncc2)nc1	7.9	/	/	2	-2	11	/

(further entries)
SMILES	RN4220 kill	Bead autofluor	BJeLR viability	Mtb hypoxia rep	Mtb hypoxia rep growth	ugtP null kill	PrP UTR inh
COc1ccc(NC(=S)NCCCN2CCOCC2)cc1	2.4	6192	-4	18	15	5	-17
O=C(CCc1nnc2ccc(NCc3ccccc3)nn12)NC1CCCC1	0.2	6202	-9	12	7	-5	5
COc1ccc(OC)c(NC(=O)C2=C(C)NC(=O)NC2c2cccs2)c1 (stereo not given)	0.4	4537	/	-6	8	-2	-7
CCOC(=O)CSc1nc(N)nc(C)c1Br	1.7	4336	1	/	/	0	-17
Cn1nc(C(=O)NCC(c2cccs2)N2CCOCC2)c2ccccc2c1=O (stereo not given)	2.4	3836	/	15	12	2	-23
COC1CCN(C(=O)c2cc(COc3ccc(-n4cncn4)cc3)on2)CC1	3.7	5653	9	9	8	4	-11
O=C(Nc1ccccc1)/C(=C\c1ccc(F)cc1)NC(=O)c1ccco1	6.9	5158	4	7	9	0	-19
COc1ccc2c(c1)[nH]c1c(N3CCN(Cc4ccc5c(c4)OCO5)CC3)ncnc12	11	23865*	20	1	-1	17	-2
COc1cc(C2Nc3ccccc3C(=O)N2c2ccccc2)ccc1O (stereo not given)	1.7	2900	-16	2	1	6	-30
Cn1cnnc1SC1CCCCC1NS(=O)(=O)c1ccc(Cl)cc1 (stereo not given)	4.3	10149	5	15	8	4	-19
CC1=C(C(=O)OCc2ccc([N+](=O)[O-])cc2)N2C(=O)C(NC(=O)Cc3ccccc3)C2SC1 (stereo not given)	2.2	3677	1	0	14	0	-26
Cc1ccccc1OCC(=O)N/N=C/c1ccc(N(C)C)cc1	/	4261	8	/	/	/	-4
CC(Sc1nnc(-c2ccco2)n1N)C(=O)NCc1ccc2c(c1)OCO2 (stereo not given)	2.6	4902	/	-5	11	2	-4
COc1cc(CNC2CCCCC2OC)cc(OC)c1 (stereo not given)	2.3	4229	0	7	9	5	10
O=C(O)COc1ccccc1/C=N/NC(=O)CSc1nc2ccccc2n1Cc1ccccc1	/	4078	-2	/	/	/	-24
Cc1ccc(S(=O)(=O)N(Cc2cccc(C)c2)C(=O)N2CCN(C)CC2)cc1	1.7	6411	14	12	1	0	2
Cc1cc2sc3ccc(C#CC4(O)CCCCC4)cc3c(=O)c2cc1C	-4.4	3394	4	-4	4	8	92*
NCCCCC1CNC(=O)C(=O)N1CC1CCCCC1 (stereo not given)	5.4	/	/	15	5	-2	/
CC(=O)c1ccc(-c2ccc(C3C4C=CCC[C@@]4(C)C(=O)N3Cc3ccccc3)c(F)c2)cc1 (stereo not given in full)	-1.7	/	/	1	21	6	/
CC1CC(=NNc2ccc(S(N)(=O)=O)cc2[N+](=O)[O-])CC(C)(C)C1 (stereo not given)	-8.7	/	/	6	15	19	/
COc1ccccc1-n1cnnc1SCc1csc(-c2ccccc2)n1	11	3287	/	-5	8	-2	-21
CCCCCCC(=O)N(O)C1CC(=O)N(Cc2ccccc2)C1=O (stereo not given)	-4.1	9537	/	1	0	-9	-15
COc1ccc(-c2nc(SCC(=O)NCc3ccco3)c(-c3ccccc3)[nH]2)cc1OC	1.5	4893	-4	/	/	-2	-12
Cc1ccc(CSC2=Nc3ccccc3C3=NC(CCC(=O)NCc4ccco4)C(=O)N23)cc1 (stereo not given)	-5.4	8600	-2	8	2	11	-23
CN(C)S(=O)(=O)c1ccc(C(=O)NC2CCCc3ccccc32)cc1 (stereo not given)	9.1	4201	9	5	3	3	-13

Exported with two lines to a compound: part of the list above
Values run as follows: RN4220 kill | Bead autofluor | BJeLR viability | Mtb hypoxia rep | Mtb hypoxia rep growth | ugtP null kill | PrP UTR inh
COc1ccc(NC(=S)NCCCN2CCOCC2)cc1
 : 2.4 | 6192 | -4 | 18 | 15 | 5 | -17
O=C(CCc1nnc2ccc(NCc3ccccc3)nn12)NC1CCCC1
 : 0.2 | 6202 | -9 | 12 | 7 | -5 | 5
COc1ccc(OC)c(NC(=O)C2=C(C)NC(=O)NC2c2cccs2)c1 (stereo not given)
 : 0.4 | 4537 | / | -6 | 8 | -2 | -7
CCOC(=O)CSc1nc(N)nc(C)c1Br
 : 1.7 | 4336 | 1 | / | / | 0 | -17
Cn1nc(C(=O)NCC(c2cccs2)N2CCOCC2)c2ccccc2c1=O (stereo not given)
 : 2.4 | 3836 | / | 15 | 12 | 2 | -23
COC1CCN(C(=O)c2cc(COc3ccc(-n4cncn4)cc3)on2)CC1
 : 3.7 | 5653 | 9 | 9 | 8 | 4 | -11
O=C(Nc1ccccc1)/C(=C\c1ccc(F)cc1)NC(=O)c1ccco1
 : 6.9 | 5158 | 4 | 7 | 9 | 0 | -19
COc1ccc2c(c1)[nH]c1c(N3CCN(Cc4ccc5c(c4)OCO5)CC3)ncnc12
 : 11 | 23865* | 20 | 1 | -1 | 17 | -2
COc1cc(C2Nc3ccccc3C(=O)N2c2ccccc2)ccc1O (stereo not given)
 : 1.7 | 2900 | -16 | 2 | 1 | 6 | -30
Cn1cnnc1SC1CCCCC1NS(=O)(=O)c1ccc(Cl)cc1 (stereo not given)
 : 4.3 | 10149 | 5 | 15 | 8 | 4 | -19
CC1=C(C(=O)OCc2ccc([N+](=O)[O-])cc2)N2C(=O)C(NC(=O)Cc3ccccc3)C2SC1 (stereo not given)
 : 2.2 | 3677 | 1 | 0 | 14 | 0 | -26
Cc1ccccc1OCC(=O)N/N=C/c1ccc(N(C)C)cc1
 : / | 4261 | 8 | / | / | / | -4
CC(Sc1nnc(-c2ccco2)n1N)C(=O)NCc1ccc2c(c1)OCO2 (stereo not given)
 : 2.6 | 4902 | / | -5 | 11 | 2 | -4
COc1cc(CNC2CCCCC2OC)cc(OC)c1 (stereo not given)
 : 2.3 | 4229 | 0 | 7 | 9 | 5 | 10

Going on with the list.
SMILES	RN4220 kill	Bead autofluor	BJeLR viability	Mtb hypoxia rep	Mtb hypoxia rep growth	ugtP null kill	PrP UTR inh
Cc1cccc(NC(=O)CSCC(=O)Nc2nnc(C3CC3)s2)c1	0.8	4859	-1	7	0	-3	-11
O=C(Nc1cccc(O)c1)c1cccc(S(=O)(=O)Nc2cccc(O)c2)c1	1.4	3622	-5	-2	8	5	-20
CN1CCN(C2CCCCCC2)CC1	1.4	23426*	0	7	16	-1	-18
Cn1cccc1/C=C1\SC(=Nc2cccc(O)c2)NC1=O	/	5604	7	/	/	/	-128
COc1cc(C=NNC(=O)c2ccc(C)nc2)ccc1OC(=O)c1ccco1	2.9	/	/	-2	12	1	/
COc1ccc(C(=O)CCC(=O)Nc2cc(Cl)c(O)c(Cl)c2)cc1	-5.3	3456	-1	-6	0	13	-18
COc1ccc(CC2SC(=Nc3ccc(F)cc3)NC2=O)cc1 (stereo not given)	4.2	4519	3	11	3	1	-19
O=c1[nH]nc(Cc2ccccn2)c2ccccc12	2.7	10198	6	9	8	3	-26
O=C(/C=C/NCc1ccc(F)cc1)c1ccccc1	5.7	2492	8	1	3	-3	-18
COc1ccc(/C=C/C(=O)OCC(=O)Nc2ccc(Cl)c(S(=O)(=O)N(C)C)c2)cc1OC	7.6	9903	-6	-3	3	4	-8
COc1ccc(Cc2nnc(NC(=O)c3cc(OC)cc(OC)c3)s2)cc1	6.0	3130	-18	-5	6	-1	5
CCc1cc(CNC(=O)c2cc(COc3ccc(C)nc3)on2)on1	4.2	6038	3	-10	-2	3	-52
Cc1cc2nnc(SCc3ccc4c(c3)OCO4)n2c2ccccc12	4.2	3982	/	15	5	7	-22
O=c1c(=O)n(O)c2ccccc2n1O	1.7	9959	0	3	10	2	-2
O=C(COC(=O)c1ccc(Cl)nc1)NCc1ccco1	1.2	4379	-1	11	7	4	-22
CCCCn1c(N)c(N(CC(C)C)C(=O)CN(C)Cc2cccc(OC)c2)c(=O)[nH]c1=O	0.2	4030	-9	/	/	6	-22
CCOC(=O)/C(C#N)=C/C1=C(N2CCCC2)CC(C)(CC)OC1 (stereo not given)	1.9	2861	5	/	/	5	-15
CC(=NNC(=O)OC(C)(C)C)c1ccco1	1.2	/	/	11	-1	5	/
Oc1ccc(N2CCN(c3ccnc4cc(Cl)ccc34)CC2)cc1	4.4	5352	-10	6	8	3	5
O=C(O)c1ccc(NC(=O)c2cn(-c3ccccc3)nc2-c2ccc(Br)cc2)cc1	3.2	4401	-4	4	-6	33	-13
O=C1CCc2cc(S(=O)(=O)NCCCC(=O)N3CCN(Cc4ccc5c(c4)OCO5)CC3)ccc2N1	-0.9	4615	8	13	13	9	-19
CCc1ccc(-n2c(=O)c3ccccc3n(CC(=O)C(C)(C)C)c2=O)cc1	0.7	6972	11	-16	5	-2	-13
COc1ccc(C(c2nnnn2CCc2ccccc2)N2CCN(C)CC2)cc1OC (stereo not given)	-0.1	2530	7	/	/	4	-1
